# Bioassay records (PubChem BioAssay)
# GLA inh pH 4.5 = qHTS Assay for Inhibitors of Human alpha-Galactosidase at pH 4.5 | 230,000 tested, under 10 active | purified enzyme, 4-MU-alpha-Gal fluorescence, pH 4.5 | Alpha-galactosidase A (Homo sapiens), P06280 | AID 1467, 2008 | activity change, negative = inhibition, % at 105 µM; inconclusive = small, poorly fitted or top-dose-only inhibition, or a rising curve; inactive = flat fitted curve, though single readings scatter; no compound was filed as active;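 further: 0% = full activity with enzyme and -100% = basal without enzyme; dose as in the result columns while the protocol names 77 µM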
# Rango dissoc inh = qHTS Assay for Inhibitors of RanGTP induced Rango (Ran-regulated importin-beta cargo) - Importin beta complex dissociation; Snurportin-1 (Homo sapiens) + GTP-binding nuclear protein Ran (Homo sapiens) + Importin …; Biochemical FRET Rango-importin beta, RanGTP-induced dissociation; Potency, µM (series often up to 46.1 µM), for inactives: top-dose activity change, negative = inhibition; 340,000 tested, 0.071% active; AID 540253, 2011; active means falling FRET ratio curve, often poorly fitted, with flat reads before Ran was added; inconclusive means other falling curves, or compound fluorescence or quenching; inactive means flat or rising ratio curve;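 further: potency means the concentration at half of the fitted maximal effect; % of control where 0% means no effect; nearly all actives have a fitted effect of over 45% in size; -100% = wells without RanGTP and RCC1; the record marks most hits as doubtful in a second field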
#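 Two FRET readings bracket the reaction: one 5 min after compound meets Rango–importin beta, another 45 min after RanGTP-RCC1 (0.6 uM Ran, 0.2 uM RCC1, 2 mM GTP) is added. Only the second defines inhibition.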
# miR-21 FLuc = qHTS Assay for Modulators of miRNAs and/orActivators of miR-21. HeLa miR-21 FLuc reporter, luciferase, 48 h. AID 2288, 2010. 340,000 tested, under 10 active. Potency, µM (highest dose often 38.3 µM), for the others: at the top dose reporter change, positive = more light; active = well fitted rising curve with a large enough effect; inconclusive = small, poorly fitted or top-dose-only effect; inactive = no such curve, though single readings can be large or run the other way;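 further: % of control where 0% means no effect; miR-21 action dims this reporter so a rising signal means less miR-21 action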
#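 Compounds were titrated across several concentrations (up to approximately 40 uM) and incubated 48 hours with HeLa miR-21-FLuc reporter cells (miR-21 target sequence downstream of FLuc, endogenous miR-21). Readout was firefly luciferase luminescence after lytic detection reagent.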
# Rango complex inh = qHTS Assay for Inhibitors of Rango (Ran-regulated importin-beta cargo) - Importin beta complex formation; Importin subunit beta-1 (Homo sapiens), Q14974; Rango CFP/YFP FRET sensor + importin beta, 45 min; Potency, µM (top dose mostly 92.2 µM), for inactives: at the highest dose inhibition of complex formation; 340,000 tested, 0.031% active; AID 540263, 2011; active = rising FRET ratio curve, often small or poorly fitted; inconclusive = mostly compound fluorescence or quenching in the first reads; inactive = flat curves in all reads;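 further: potency means the concentration at half of the fitted maximal effect; 0% = DMSO wells and 100% = buffer wells lacking importin beta; nearly all actives have a fitted effect of over 15% in size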
# Target sequence (Q14974 whole entry, looked up): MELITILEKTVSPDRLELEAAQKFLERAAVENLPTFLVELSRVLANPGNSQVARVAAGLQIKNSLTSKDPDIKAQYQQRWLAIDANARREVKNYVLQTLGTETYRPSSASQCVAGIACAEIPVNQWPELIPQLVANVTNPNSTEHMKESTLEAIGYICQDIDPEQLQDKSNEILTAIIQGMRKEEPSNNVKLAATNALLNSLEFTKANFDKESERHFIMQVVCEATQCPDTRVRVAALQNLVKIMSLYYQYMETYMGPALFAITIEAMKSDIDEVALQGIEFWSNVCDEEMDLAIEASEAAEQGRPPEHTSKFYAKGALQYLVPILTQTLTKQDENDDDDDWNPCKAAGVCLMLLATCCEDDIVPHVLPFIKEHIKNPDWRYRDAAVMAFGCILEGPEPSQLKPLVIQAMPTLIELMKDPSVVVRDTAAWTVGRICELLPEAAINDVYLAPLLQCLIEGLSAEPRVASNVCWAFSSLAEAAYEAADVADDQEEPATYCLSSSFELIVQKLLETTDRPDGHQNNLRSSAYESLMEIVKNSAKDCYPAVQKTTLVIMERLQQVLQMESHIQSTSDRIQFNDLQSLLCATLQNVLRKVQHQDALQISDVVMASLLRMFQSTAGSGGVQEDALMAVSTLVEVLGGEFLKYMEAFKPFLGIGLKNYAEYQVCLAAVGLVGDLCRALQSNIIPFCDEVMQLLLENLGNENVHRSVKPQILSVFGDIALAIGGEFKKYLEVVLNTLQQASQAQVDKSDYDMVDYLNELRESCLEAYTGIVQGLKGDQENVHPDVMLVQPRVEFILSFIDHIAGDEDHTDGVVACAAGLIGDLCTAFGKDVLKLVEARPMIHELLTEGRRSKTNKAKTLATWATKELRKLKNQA
#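 Inhibition scored from the CFP 486 nm/YFP 530 nm FRET ratio 45 min after adding 0.125 microM importin beta to 50 nM Rango biosensor preincubated 5 min with compound (room temperature, PBS with DTT, Tween-20, BSA). No-importin wells as positive control.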
# Starred values were filed as active, the others as inactive; ? = inconclusive; · = no result given; & = joins results of further samples. The list is partial, so the mix of outcomes need not match the whole.
SMILES,GLA inh pH 4.5,Rango dissoc inh,miR-21 FLuc,Rango complex inh
C/C=C/c1ccc(OCCCCn2cncn2)c(OC)c1,-2,1%,-26%,-0.6%
CC1=C(C)CC2(SC1)C(=O)N(c1ccccc1)N=C2N (stereo not given),-4,?,-29%,-0.8%
Cc1cc(C)c2nc(N3CCC(C(=O)NCCCN4CCCCC4)CC3)sc2c1,6,2%,-7%,0.8%
c1ccc(CSc2nnc3ccc(-c4ccco4)nn23)nc1,-1,-3%,-46%,0.0%
COc1ccc(CCNC(=O)c2c(-c3ccccc3Cl)noc2C)cc1,-7,-9%,-7%,0.1%
CCCN1CCN(C(=O)Cn2cccc2C(=O)c2ccccc2)CC1,-1,-7%,-3%,-3.6%
NC(=O)c1ccccc1NC(=O)/C=C/c1c(Cl)cccc1Cl,7,-9%,-71%,?
COC(=O)C(Cc1ccc(O)cc1)NC(=O)c1ccccc1OC (stereo not given),-3,2%,-6%,-0.7%
Cc1ccc(NC(=O)CN(C)C(C)C(=O)Nc2ccc(S(=O)(=O)N3CCCC3)cc2)cc1 (stereo not given),·,-10%,·,2.9%
CCOC(=O)Cc1c(C)nc2c(-c3ccccc3OC)c(C)nn2c1C,-26,17%,-2%,-1.9%
c1ccc2c(c1)oc1c(NCCCn3ccnc3)ncnc12,-4,0%,-25%,0.6%
COc1ccc(NC(=O)/C(=C\c2ccc(F)cc2)NC(=O)c2ccco2)cc1,·,-12%,0%,0.9%
c1ccc(-c2nnc3n2CCCC3)cc1,-1,12%,-2%,-3.5%
O=[N+]([O-])c1ccc(S(=O)(=O)Nc2cccc(-c3ccc(N4CCCC4)nn3)c2)cc1,·,-2%,·,0.8%
Cc1cccc(NC(=O)CNC(=O)CN2C(=O)NC3(CCCCC3C)C2=O)c1C (stereo not given),·,-7%,·,-4.3%
COc1ccc(CCNC(=O)CCN2C(=O)[C@@H]3Cc4ccccc4CN3C2=O)cc1,·,0%,3%,0.8%
CCc1ccccc1NC(=S)NCc1ccc2c(c1)OCO2,-6,3%,-5%,0.0%
CCCCNC(=S)N(C)/N=C/c1c(F)cccc1F,-8,16%,-3%,-1.4%
Cc1ccc(C2=C/C(=C\c3cccnc3)C(=O)O2)cc1,6,?,-7%,?
Cc1cccc(NC(=S)/N=C(\N)Nc2nc(C)c3ccc(C)cc3n2)c1,-7,1%,22%,-0.4%
NCC(O)CN(c1ccccc1)c1ccccc1 (stereo not given),1,4%,-2%,0.0%
CC(C)(C)NC(=O)CN(C(=O)CS(=O)CC(=O)Nc1ccc(F)cc1)c1cccc(F)c1 (stereo not given),1,-13%,-2%,2.5%
CC(C)(C)CN1CCN(Cc2nc(-c3ccc(F)cc3)cs2)CC1CCO (stereo not given),·,5%,24%,-6.0%
CC(C)[C@H]1CC[C@@H](C)C(C(=O)c2ccccc2)C1=O (stereo not given in full),3,-4%,1%,1.7%
CCOC(=O)C1CCCN(C(=O)c2cn(CC(C)C)c(=O)c3cc(OC)c(OC)cc23)C1 (stereo not given),0,-1%,-14%,-0.6%
NC(CSC12CC3CC(CC(C3)C1)C2)C(=O)O (stereo not given),-3,1%,-5%,-3.8%
Nc1ncnc2c1ncn2C1CCCC1,-3,2%,·,0.0%
Cc1cccc(OCC(=O)Nc2ccc(C(=O)O)cc2NC(=O)COc2cccc(C)c2)c1,·,0%,-7%,0.8%
COc1ccc(Br)cc1/C=N/NC(=O)CN1CCCCC1,·,26%,4%,-1.2%
O=C(c1cn(-c2ccccc2)nc1-c1ccncc1)n1nnc2ccccc21,·,57%,·,-1.2%
CCN1c2ccccc2-c2nc3ccccc3n2C1c1ccncc1 (stereo not given),2,-11%,5%,1.8%
CCn1cc(C2=NC(C)CO2)c2ccccc21 (stereo not given),7,-3%,-16%,-1.7%
CCCc1ccc(OCc2ccc(C(=O)NN)o2)c(OC)c1,·,7%,-28%,3.5%
O=C(Nc1cccc(S(=O)(=O)NC2=NCCC2)c1)C1CCC1,4,1%,-13%,0.5%
COc1ccc(S(=O)(=O)Cc2ccc(C(=O)N3CCN(c4cccc(C)c4)C(C)C3)o2)cc1 (stereo not given),-2,0%,30%,-1.2%
CC1=C/C(=C/N(C)c2ccccc2)C(=O)S1,2,?,-2%,3.1%
COCCNC(=O)Cn1cc2c(n1)CCCCC2,5,-10%,-1%,-0.8%
CSc1cccc(NC(=O)C(C)NS(=O)(=O)c2ccc(F)cc2)c1 (stereo not given),10,-1%,-5%,-1.9%
COc1cc(/C=N/N2C(=O)c3ccccc3C2=O)ccc1O,-13,1%,-7%,-3.3%
CCCn1c(SCC(=O)NC(=O)Nc2ccc(C)cc2C)n[nH]c1=O,2,-10%,-3%,1.4%

# Single values from above:
# CCc1ccccc1NC(=S)NCc1ccc2c(c1)OCO2 @ GLA inh pH 4.5 = -6
# C/C=C/c1ccc(OCCCCn2cncn2)c(OC)c1 @ Rango dissoc inh = 1%
# CC1=C(C)CC2(SC1)C(=O)N(c1ccccc1)N=C2N (stereo not given) @ Rango complex inh = -0.8%
# CCN1c2ccccc2-c2nc3ccccc3n2C1c1ccncc1 (stereo not given) @ Rango complex inh = 1.8%
# Nc1ncnc2c1ncn2C1CCCC1 @ Rango complex inh = 0.0%
# COc1ccc(CCNC(=O)CCN2C(=O)[C@@H]3Cc4ccccc4CN3C2=O)cc1 @ Rango dissoc inh = 0%
# O=C(c1cn(-c2ccccc2)nc1-c1ccncc1)n1nnc2ccccc21 @ Rango dissoc inh = 57%

# Next part.
SMILES,GLA inh pH 4.5,Rango dissoc inh,miR-21 FLuc,Rango complex inh
O=S(=O)(/C=C/c1ccccc1)Nc1ccc2c(c1)OCO2,-1,0%,-15%,4.3%
O=C(COC(=O)/C=C/c1ccccc1Cl)NCCNC(=O)COC(=O)/C=C/c1ccccc1Cl,·,0%,0%,0.0%
O=C(NCc1ccccc1)c1ccc(Oc2ccc(C(=O)NCc3ccccc3)cc2)cc1,0,3%,-7%,?
CCC(C)c1ccccc1N1CC(C(=O)N2CCN(S(=O)(=O)c3ccc(F)cc3)CC2)CC1=O (stereo not given),·,7%,·,-3.9%
Cn1cc(CN2CCC(n3nccc3NC(=O)CCCc3ccccc3)CC2)cn1,·,-9%,1%,-2.0%
CCOc1ccc(CN(C)CCc2ccccn2)cc1,-25,1%,0%,-1.6%
COc1ccc(OC)c(C2=NOC(C(=O)N3CCN(c4ccccc4)CC3)C2)c1 (stereo not given),5,14%,-6%,1.0%
CCCS(=O)(=O)c1nc(S(=O)(=O)c2ccc(C)cc2)c(N2CCCC(C)C2)s1 (stereo not given),·,-2%,4%,-0.3%
Nc1ncnc(SCc2c(F)cccc2Cl)n1,2,1%,-23%,5.8%
CCOC(=O)c1ccc(NC(=O)Nc2ccc(OC)c(OC)c2)cc1,3,0%,8%,-0.2%
CCCCN([C@H](CO)C(C)C)S(=O)(=O)c1ccccc1Br,·,29%,·,-2.9%
Cc1ccc(NC(=O)CCNS(=O)(=O)c2ccc3[nH]c(=O)oc3c2)cc1F,·,14%,5%,-2.2%
CCC(=O)Nc1ccc2oc(-c3cccc(C)c3)nc2c1,-5,-14%,-20%,-3.2%
O=S(=O)(/N=C(/Sc1ccccc1)c1ccccc1)c1ccccc1,5,1%,0%,-0.8%
Cc1onc(-c2c(Cl)cccc2Cl)c1COC(=O)c1ccc(Cl)cc1[N+](=O)[O-],-6,13%,2%,0.1%
CCN(CC)C(=O)N1CCN(C(=O)N(CC)CC)CC1,0,-1%,-1%,4.8%
CCn1cc(/C=C(\NC(=O)c2cc(OC)c(OC)c(OC)c2)C(=O)NCCCN2CCOCC2)c2ccccc21,·,1%,0%,-3.9%
Cn1c(=O)c2c(nc(N3CCNCC3)n2Cc2ccccc2Cl)n(C)c1=O,1,7%,1%,-1.0%
CC1(C)CC(C)(c2ccc(O)cc2O)N(c2cccc(Cl)c2)C(=S)N1 (stereo not given),-1,1%,1%,-1.0%
COC(=O)c1cc(-c2cccc([N+](=O)[O-])c2)c2c(=O)n(C)c(=O)n(C)c2n1,·,4%,4%,2.6%
O=C(CN1C(=O)NC2(CCCCCCC2)C1=O)Nc1ccc(OC(F)F)cc1,·,-13%,·,-0.8%
CCN(Cc1ccc2c(c1)OCCO2)C(=O)CN1C(=O)NC2(CCc3ccccc32)C1=O (stereo not given),·,-4%,·,-0.8%
NC(=O)c1nsc(C(=O)N(c2ccccc2)C(C(=O)NCc2ccc(F)cc2)c2ccc(O)cc2)c1N (stereo not given),·,-1%,24%,-7.1%
O=C(NCCC(=O)N1CCCCCCC1)c1ccc(Cl)cc1,·,-9%,·,-2.2%
O=C(NCC1CCCO1)C1CCC(N2C(=O)c3ccccc3C2=O)CC1 (stereo not given),1,2%,1%,-1.3%
COC(=O)c1ccc(CS(=O)(=O)c2ccc(C)cc2)cc1,7,8%,4%,-5.8%
Cc1ccc2c(c1)CCCN2C(=O)c1cc(C)on1,·,38%,-10%,7.2%
O=C(c1cc(-c2cccc(Br)c2)nc2ccccc12)N1CCCC1,·,-1%,-7%,1.9%
CCn1ccnc1[C@@H]1C[C@H]2CN(c3ccccc3OC)C(=O)[C@]23CCCN13,-24,11%,-1%,0.0%
O=C(O)/C(=C\c1ccc(F)cc1)c1ccc(-c2ccccc2)cc1,·,14%,2%,1.6%
CC(=O)c1cccc(N=c2scc(-c3ccc(S(=O)(=O)N4CCOCC4)cc3)n2CCO)c1,4,0%,21%,-1.2%
CCC(=O)Nc1ccc(Cl)c(NC(=S)NC(C)=O)c1,3,-11%,-3%,-1.0%
Cc1c(N)ccc(-n2nc3ccccc3n2)c1C,·,11%,·,1.1%
O=C(COc1ccc(Cl)cc1Cl)N1CCCC1,-1,-8%,-2%,?
Cc1cccc(C(C)Nc2ccc([N+](=O)[O-])cn2)c1 (stereo not given),6,-12%,4%,0.4%
O=C(NCCF)[C@H]1C[C@@H]1[C@H](NP(=O)(c1ccccc1)c1ccccc1)c1ccccc1,6&-9,-3%,-12%,3.1%
Cc1ccc(N2C(=O)CS(=O)(=O)CC2=O)cc1,-2,19%,-4%,-0.1%
CCCOC(=O)c1ccc(Cl)c(NC(=O)c2cccnc2)c1,2,·,-4%,·
COc1ccccc1NS(=O)(=O)c1ccc(NC(=O)N2CCCCC2)cc1,·,-3%,-5%,-1.0%
CC1CC1c1ccc(/C=C(\C#N)C(=O)Nc2ccccc2Cl)o1 (stereo not given),-4,?,-62%,?
Cc1ccccc1N(C(=O)CNC(=O)c1ccco1)C(C(=O)NC1CCCCC1)c1ccncc1 (stereo not given),·,2%,0%,2.6%
COC(=O)c1ccc(NC(=O)CN2CCN(c3cccc(Cl)c3)CC2)cc1,-17,-12%,-4%,?
COc1ccc(C(=O)Nc2nc(-c3ccccn3)cs2)cc1S(=O)(=O)N1CCOCC1,·,-15%,·,0.3%
CCCCOc1ccc(NC(=O)C(=O)NCCCn2ccnc2)cc1,-6,4%,-2%,-1.2%
CCOC(=O)C1(c2nc(N)cs2)COC(=O)C1 (stereo not given),5,5%,-9%,-4.1%
CC(C)COc1cccc(C(=O)NC(=S)Nc2cccc(NC(=O)c3ccccc3Cl)c2)c1,1,35%,-5%,4.7%
CCCCn1c(C)cc(/C=C(\C#N)C(=O)O)c1C,0,0%,-14%,-4.2%
CCc1nn(C(C)C(=O)NCCc2ccc(OC)c(OC)c2)c(=O)c2cc3occc3n12 (stereo not given),-5,14%,-6%,-6.5%
O=C(c1cc(S(=O)(=O)N2CCOCC2)c(Cl)cc1Cl)N1CCCCC1,-1,-19%,0%,-6.1%
Cc1cc(C)nc(N2CCC(C(=O)NCc3cccs3)CC2)n1,4,1%,-2%,-0.1%

# Entries from the list above with a tert-butyl group, in the order listed:
SMILES,GLA inh pH 4.5,Rango dissoc inh,miR-21 FLuc,Rango complex inh
CC(C)(C)NC(=O)CN(C(=O)CS(=O)CC(=O)Nc1ccc(F)cc1)c1cccc(F)c1 (stereo not given),1,-13%,-2%,2.5%
CC(C)(C)CN1CCN(Cc2nc(-c3ccc(F)cc3)cs2)CC1CCO (stereo not given),·,5%,24%,-6.0%
